# Screens from PubChem BioAssay.
# HIV TAR-Tat = HIV-1 TAR-Tat binding disruption | HIV-1 TAR RNA, Tat peptide displacement FRET; hits give high values | z-score (concentration not given with the values) | actives 0.6% (n = 100,000) | AID 1259389;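 note: score is relative to mean and SD of negative controls; some compounds called inactive have numbers as strong as hits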
# CDC25B CDK2 inh = human CDC25B-CDK2/CyclinA binding inhibition. P30305+P24941. HTRF CDC25B-CDK2/CyclinA binding, anti-His/anti-Flag; hits give high values. z-score (concentration not given with the values). actives 0.72% (n = 94,000);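 note: score is relative to mean and SD of negative controls; strong numbers were not always called active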
# Starred values were filed as active, the others as inactive; · = no result given.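 Rule for the calls: active = z-score from 3 up in half or more of its runs; inactive = the rest.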
SMILES,HIV TAR-Tat,CDC25B CDK2 inh
Cc1ccc(C)c(NC(=O)c2cc(=O)c3cc(C)c(C)cc3o2)c1,1,0.71
NC(=S)N/N=C/c1ccccc1,·,-0.65
Cc1cc(C)n(Cc2ccc(C(=O)NCCc3ccco3)o2)n1,0.07,·
Cc1ccc(Cl)cc1NC(=O)Cn1nc2c3sccc3ncn2c1=O,1.1,·
COc1cc(-c2nc3ccccc3[nH]2)cc(OC)c1OC,·,-1.2
CCOc1ccc(C2c3c(-c4ccccc4O)n[nH]c3C(=O)N2CC2CCCO2)cc1OCC (configuration not stated),1.5,2.6
COc1cc(-c2nc3ncccn3c2NCc2ccccc2)ccc1OC(C)C,-0.98,·
Cc1ccc(N2C(=O)N(c3ccccc3)C3CS(=O)(=O)CC32)cc1Cl (configuration not stated),0.88,-0.94
CCOC(=O)c1cc(-c2ccc(S(=O)(=O)NC3CC3)s2)on1,-0.57,·
Cc1ccc(C)n1N(C)c1ccc([N+](=O)[O-])cn1,·,-1.6
CN1C(=O)Cc2cc(S(=O)(=O)N3CCN(c4ccc(=O)n(-c5ccccc5)n4)CC3)ccc21,0.64,·
CC(C)Nc1nc2c(S(=O)(=O)c3ccccc3)nnn2c2ccccc12,1.3,-1.1
CC(C)(CCNC(=O)Cc1ccsc1)C(=O)N/N=C/c1ccccc1,·,-1.4
CC(=O)N1CCN([C@H]2CS(=O)(=O)C[C@@H]2S(=O)(=O)c2ccc(F)cc2)CC1,-0.75,-2.1
CC1=C(c2ccc(C)cc2)S(=O)(=O)NC1=NC1CCCC1,-0.06,-1.3
COC(=O)C(C)c1ccc(C(=O)c2cccs2)cc1 (configuration not stated),2.5,·
CC(C)C(NC(=O)CN1C(=O)c2ccccc2S1(=O)=O)C(C)C,1.1,0.22
CCOC(=O)C1CCCN(c2nc3c(C)cc(C)cc3s2)C1 (configuration not stated),1.1,-2.3
O=C1CC(=O)Nc2cc(S(=O)(=O)N3CCN(c4ccccc4)CC3)ccc2N1,0.31,-0.39
Nc1cc(-c2ccc(Br)cc2)nn1S(=O)(=O)c1ccc(F)cc1,1.1,-1.2
COc1ccc(OC)c(-c2noc(CSc3nnc(-c4ccc(Cl)cc4)n3C)n2)c1,1.2,0.19
Cc1cc(C)c2oc(C(=O)NCC(c3ccc(C)o3)N(C)C)cc(=O)c2c1 (configuration not stated),-0.05,-2
COCCNC(=O)C1CCN(S(=O)(=O)c2ccc3c(c2)CC(C)N3C(=O)C2CCC2)CC1 (configuration not stated),0.66,·
COc1ccccc1-c1nc2ccc(Br)cc2c(=O)o1,·,1.9
O=S(=O)(Cc1ccccc1)c1ccc2c(c1)S(=O)(=O)N=CN2,-0.52,·
# Going on with the list.
SMILES,HIV TAR-Tat,CDC25B CDK2 inh
O=C(NCCc1ccccc1)c1ccc2nonc2c1,·,-1.5
COc1cc(-c2nc3cc(OC(C)=O)ccc3c(=O)o2)cc(OC)c1OC,·,-2
CCCNC(=O)c1cnc2sc(N3CCC(C)CC3)nn2c1=O,-1.4,·
CCOC(=O)c1cc(C)n(CC2CCC(C(=O)Nc3nc(C)cs3)CC2)c1C (configuration not stated),0.24,·
CCOC(=O)Cc1c(C)nc2c(-c3ccc(Cl)cc3)c(C(F)(F)F)nn2c1C,1.9,-2.5
Cn1nnc2c(N3CCN(c4ccccc4F)CC3)ncnc21,1.9,·
CCOC(=O)c1c(NC(C)=O)c2c3c(sc2n1Cc1cn2ccccc2n1)CCCC3,1.7,·
CC(C)CC(=O)Nc1ccc(SCc2cc(=O)n3c(ncn3C(C)C)n2)cc1,0.88,0.47
O=C(NCc1csc(-c2ccccc2)n1)[C@H]1CSCN1C(=O)c1cccc(Cl)c1,1.4,·
COc1ccc(Nc2nc(N(C)C)nc3c2cnn3C)cc1Cl,1.3,·
Cn1c(=O)n(C)c2cc(S(=O)(=O)N3CCCC3)ccc21,1.6,0.33
Cc1nc2ccccc2nc1CSc1nnc(N)s1,-0.53,0.2
O=C(O)CSCC(=O)c1c[nH]c2ccccc12,0.44,-0.81
COc1ccc(-c2nnc3c4cc5c(cc4n(Cc4cccc(F)c4)cc2-3)OCCO5)cc1OC,1.2,-0.4
CCCCc1ccc(NC(=O)Cn2nc3c4scc(-c5ccc(C)cc5)c4ncn3c2=O)cc1,1.4,·
NC(=O)C1CCN(c2nccc(C(F)(F)F)n2)CC1,·,-0.35
CN1CCN(c2ncc3c(n2)CCN(Cc2ccccc2F)C3)CC1,1.1,·
Cc1nnc2c(Nc3cc(Cl)ccc3O)nc3ccccc3n12,0.79,-2.1
O=S1(=O)C[C@H](N2CCN(C/C=C/c3ccccc3)CC2)[C@@H](S(=O)(=O)c2ccccc2)C1,-0.77,0.79
CC1c2cccn2CCN1C(=O)Nc1ccc(Br)cc1 (configuration not stated),-1.8,·
COc1ccc(-c2c(C(F)(F)F)nn(C)c2NC(=O)Nc2ccc(F)cc2F)cc1,·,0.66
CC1CC(C)CN(CCCNC(=O)C2CCCN(S(=O)(=O)N3CCOCC3)C2)C1 (configuration not stated),4.1,·
COc1ccc(Cl)c2c1N[C@@H](c1ccc(C(=O)O)cc1)[C@H]1CC=C[C@@H]21,·,-0.15
O=C(CCS(=O)(=O)c1cccc2nonc12)NC1CCCCC1,1.8,·
CCSc1nnc(NC(=O)c2cc(=O)c3ccc(C)c(C)c3o2)s1,2.1,-1.3

# Full records from above.
# COc1ccc(Nc2nc(N(C)C)nc3c2cnn3C)cc1Cl in the list: HIV TAR-Tat = 1.3; CDC25B CDK2 inh = ·
# COc1ccc(-c2c(C(F)(F)F)nn(C)c2NC(=O)Nc2ccc(F)cc2F)cc1 in the list: HIV TAR-Tat = ·; CDC25B CDK2 inh = 0.66

# Continuation:
SMILES,HIV TAR-Tat,CDC25B CDK2 inh
CCc1nn(CC(=O)N2CCN(c3ncccn3)CC2)c(=O)c2cc3sccc3n12,0.36,-0.69
CCCS(=O)(=O)Nc1cccc(-c2cn3cccc(C)c3n2)c1,-0.05,-0.07
CC(=O)Oc1ccc2c(C)cc(=O)oc2c1C(=O)c1ccccc1,·,-1.2
Clc1cccc2c3c([nH]c12)CCN(Cc1ccccc1)C3,·,-0.35
COc1ccc(CN2CCCN(Cc3ccc(F)cc3)S2(=O)=O)cc1,1.5,·
COc1ccc(NC(=O)C(=O)N2N=C(CCC(C)C)CC2(O)C(F)(F)F)cc1 (configuration not stated),·,-1.2
O=C(NC1CCCCC1)c1cnn(-c2cccc(F)c2)c1C1CCNCC1,0.37,·
CC(C)NC(=O)c1cc2n(n1)C(C(F)(F)F)CC(c1ccc(Br)cc1)N2 (configuration not stated),1.7,-1.8
CCn1nc(C)c(CNC(=O)NC2CCCCC2)c1C,1.2,·
CSc1nsc(SC)c1C(=O)NCCSCc1ccc(Cl)cc1,·,-0.72
COc1ccc(-c2[nH]ncc2CN2CCCC2c2cc(C)on2)cc1 (configuration not stated),0.68,·
c1ccc2c(c1)ncn2CCOCCOCCn1cnc2ccccc21,0.75,2.4
COc1ccc(OC)c(C2SCCN2S(=O)(=O)c2ccc(F)cc2)c1 (configuration not stated),0.5,-0.34
CCOC(=O)N1CCC(N2Cc3cccc(C(=O)O)c3C2=O)CC1,2.8,-1.4
Cc1cccn2cc(-c3cccc(S(=O)(=O)N(C)C)c3)nc12,2.3,-0.82
NCCn1c(-c2ccncc2)nc2cccnc21,-8.2,·
CCOCC(=O)Nc1cc(F)c2nc(N3CCOCC3)ccc2c1,0.67,·
COc1ccccc1NC(N)=S,·,-0.69
OC(CNC1CCCCC1)CNC1CCCCC1,-0.46,-0.42
O=C(Nc1ccccc1)NC(c1ccccc1)c1nnc(-c2ccccc2Cl)o1 (configuration not stated),2.3,-1.5
CCOC(=O)Cn1c(=O)oc2cc(S(=O)(=O)NC3CCCCC3)ccc21,-1.8,1.4
C=C(C)n1c(=O)[nH]c2ccccc21,·,-1.2
CCc1c(C)c(C#N)c2nc3ccccc3n2c1N1CCN(C2=NCC(C)(C)S2)CC1,·,-0.04
Cc1ccc(Cl)cc1-n1ncc2c(NCC(C)C)ncnc21,0.41,·
CCOC(=O)c1sc(NC(=O)CSc2n[nH]c(CC(C)C)n2)nc1C,1,0.01

# Reformatted with tabs: two of the compounds above.
Compound	HIV TAR-Tat	CDC25B CDK2 inh
CSc1nsc(SC)c1C(=O)NCCSCc1ccc(Cl)cc1	·	-0.72
CCc1c(C)c(C#N)c2nc3ccccc3n2c1N1CCN(C2=NCC(C)(C)S2)CC1	·	-0.04

# Carrying on.
SMILES,HIV TAR-Tat,CDC25B CDK2 inh
Cc1noc(N)c1C(N)=S,·,-1.1
O=C(O)Cn1ncn2c(cc3ccccc32)c1=O,·,-1.3
CCOc1cc(C)c(Cl)cc1S(=O)(=O)Nc1ccccn1,-0.07,-0.57
Clc1ccc(-c2noc3ncnc(N4CCCC4)c23)cc1,-0.15,-2.2
Cc1cc(C)nc(-n2nc(C)c3c2NC(=O)CC3c2cc(F)cc(F)c2)n1 (configuration not stated),1.1,-2.8
CC1CCCCN1C(=O)c1nn2c(c1Br)NC(c1cccs1)CC2C(F)(F)F (configuration not stated),1.4,1.8
COc1cc(NC(=O)CN2N=NC3C(=O)N(c4ccc(Br)cc4)C(=O)C32)cc(OC)c1 (configuration not stated),1.6,·
Cc1ccc(OC(=O)c2nn(-c3ccccc3)nc2C)c([N+](=O)[O-])n1,·,-1.2
COc1ccc(OC)c(NC(=O)c2nc(-n3cnnc3)ccc2Cl)c1,2.8,·
CCOC(=O)c1c(S(=O)(=O)NCCc2cccs2)c(C)n(C)c1C,2.4,·
CC1=C(/C=C/C(C)=C/C=C/C(C)=C/CO)C(C)(C)CCC1,-0.01,·
O=C(Nc1c(C(=O)Nc2ccc(F)cc2)oc2ccccc12)c1cc2ccccc2o1,0.83,0.2
O=C(Cc1cccs1)N1c2ccccc2CCc2ccccc21,·,-1.8
COc1ccc(NCc2cccn2-c2nnc(N3CCOCC3)s2)c(OC)c1,1.4,·
Clc1ccc(Cc2nc(-c3ccncc3)no2)cc1,-0.27,-0.49
CCC(Sc1nc2ncccc2o1)C(=O)NC1CCCCC1 (configuration not stated),0.25,·
CCOc1ccc(N(C(C)=O)C2SC(=O)N(c3ccccc3)C2=O)cc1 (configuration not stated),2.9,-1
Cn1ccnc1SCC(=O)n1c2c(c3ccccc31)CCCC2,1.5,-0.24
O=C(NCc1ccc2c(c1)OCO2)C1CCCN(S(=O)(=O)N2CCCC2)C1 (configuration not stated),-0.29,·
O=C(c1cnc(N2CCOCC2)nc1)N1CCN(C(=O)c2ccco2)CC1,1.7,·
CCCCCN(CCS(=O)(=O)N1CCNCC1)S(=O)(=O)c1ccc(C)cc1,0.94,·
Brc1ccc(CN2CCc3nc(N4CCOCC4)ncc3C2)cc1,0.85,·
OC(COc1ccc(Cl)cc1)CN1CCN(c2ccc(F)cc2)CC1 (configuration not stated),·,1.2
COc1ccc(OC)c(NC(=O)N2CCC3(CC2)Nc2cc(F)ccc2-n2cccc23)c1,0.59,·
CCOc1ccc(/C(O)=C2\C(=O)C(=O)N(CCN3CCOCC3)C2c2ccc(C(C)C)cc2)c(C)c1 (configuration not stated),0.51,-1

# 3 of the compounds above, with values under each structure:
# Values in the order: HIV TAR-Tat | CDC25B CDK2 inh
COc1ccc(OC)c(NC(=O)c2nc(-n3cnnc3)ccc2Cl)c1
 : 2.8 | ·
CCOC(=O)c1c(S(=O)(=O)NCCc2cccs2)c(C)n(C)c1C
 : 2.4 | ·
CC1=C(/C=C/C(C)=C/C=C/C(C)=C/CO)C(C)(C)CCC1
 : -0.01 | ·

# Single entries from the entries so far:
# Result for `Clc1ccc(Cc2nc(-c3ccncc3)no2)cc1` in CDC25B CDK2 inh: -0.49
# Result for `COc1ccc(OC)c(NC(=O)N2CCC3(CC2)Nc2cc(F)ccc2-n2cccc23)c1` in HIV TAR-Tat: 0.59
# Result for `OC(COc1ccc(Cl)cc1)CN1CCN(c2ccc(F)cc2)CC1` (configuration not stated) in CDC25B CDK2 inh: 1.2
# Result for `O=C(O)Cn1ncn2c(cc3ccccc32)c1=O` in CDC25B CDK2 inh: -1.3

# Following part
SMILES,HIV TAR-Tat,CDC25B CDK2 inh
CC(CC(=O)N1CCN(c2ccccc2)CC1)S(=O)(=O)c1ccc2c(c1)CCN2C(=O)C1CC1 (configuration not stated),-0.82,·
Cc1csc2ncc(C(=O)N3c4ccc(F)cc4CCC3C)c(=O)n12 (configuration not stated),0.49,1.2
Fc1ccc(-n2cc(-c3ccccc3)c3c(NCc4ccccn4)ncnc32)cc1,1.1,·
Cc1c(C(=O)N2CCN(c3ccccc3)CC2)sc2ncnc(N3CCN(c4ccccn4)CC3)c12,1.2,-1.7
CSc1nc2ccccc2c(=O)n1CCc1ccccc1,·,-0.88
Cc1ccc(NS(=O)(=O)c2cc(-c3n[nH]c(=O)c4c3CCCC4)ccc2C)cc1F,0.71,1.1
O=[N+]([O-])c1c(Sc2ccc(Cl)cc2)ccc2nsnc12,·,-0.73
O=C(NNC(=O)c1nn(-c2ccc(F)cc2)ccc1=O)Nc1cccc(Cl)c1,·,-0.78
O=C(c1ccccc1)c1ccc2nc(NC3CCCCC3)c3nncn3c2c1,0.34,·
Cc1c(NC(=O)C2(c3cccs3)CCOCC2)c(=O)n(-c2ccccc2)n1C,0.89,·
CCOC(=O)N1CCN(S(=O)(=O)c2cccc3nsnc23)CC1,0.74,·
CCOc1ccc(N2CC(C)Cn3c2nc2c3c(=O)[nH]c(=O)n2C)cc1 (configuration not stated),-0.16,-1.4
O=C1N(Cc2ccccc2)CCN1C1CCN(S(=O)(=O)c2cccc3nsnc23)CC1,0.27,·
COc1cc(C)c(S(=O)(=O)N2CCN(Cc3ccc4c(c3)OCO4)CC2)cc1C,-0.93,-1.7
O=C(Cn1ncc2c1-c1ccccc1OC2)Nc1cccnc1,0.77,0.45
COc1ccc(OCC(O)CNC(=O)c2cc(C(C)(C)C)nn2C)cc1 (configuration not stated),·,-2.3
C=CCN1C(=O)C2CCCCN2c2ccc(C(=O)O)cc21 (configuration not stated),2.3,·
Clc1cccc(CSc2ccc(-c3ccccn3)nn2)c1,1.6,·
CNC(=O)C1CCC(Cn2c(=O)c3sccc3n(CC(=O)Nc3ccccc3)c2=O)CC1 (configuration not stated),1.1,·
Cc1ccc(-n2nc(C)c3c(C)cc(=O)[nH]c32)cc1,2.2,0.27

# This is a random part of the collection. About 0.94% of those tested had a hit in this group.
